HPGD block – qHTS Assay for Inhibitors of HPGD (15-Hydroxyprostaglandin Dehydrogenase); Potency, µM, without a hit: at the top dose activity change, negative = inhibition, most hits filed as inhibitors; AID 894, 2007; purified HPGD, NADH fluorescence kinetic, PGE2 substrate; actives 4.3% (n = 150,000); active = well fitted inhibition curve with a large enough effect (not every such curve was filed as active); inconclusive = small, poorly fitted or top-dose-only effect, or another doubt; inactive = no such curve, though single readings can be large or run the other way;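 further: top concentration of the series not given in the record; plate controls included wells without enzyme; inactives centre near -10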
Target sequence (P15428 whole entry, looked up): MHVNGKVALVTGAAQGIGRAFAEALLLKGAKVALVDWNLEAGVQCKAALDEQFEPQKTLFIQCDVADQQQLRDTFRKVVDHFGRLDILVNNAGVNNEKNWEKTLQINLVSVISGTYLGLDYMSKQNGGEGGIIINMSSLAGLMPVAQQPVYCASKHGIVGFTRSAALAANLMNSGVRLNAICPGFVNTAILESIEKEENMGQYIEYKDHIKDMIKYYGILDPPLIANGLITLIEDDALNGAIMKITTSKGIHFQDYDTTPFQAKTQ
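20 nM HPGD preincubated 15 min at room temperature with compound in 50 mM Tris-HCl pH 8, 0.01% Tween 20. Started with 1 mM NAD+ and 30 uM prostaglandin E2; NADH fluorescence (360/450 nm) read 5 times over 30-s intervals, last minus first.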
The depositor's hits bear a star; ? = inconclusive. On the % scale 0 is the no-effect control and ±100 the full control effect; potency means the concentration at half of the fitted maximal effect.

SMILES | HPGD block
COc1c(Cl)cc(-c2noc(C)c2C(=O)NC(C)C)cc1Cl | -3.5%
CN(C)S(=O)(=O)c1ccc(NC(=O)c2cc3ccccc3o2)cc1 | -6.0%
CCOC(=O)CC1C(=O)NCCN1C(=O)Nc1ccccc1 (configuration not stated) | -4.7%
COC(=O)CSc1nnc2c3c4c(sc3nc(-n3nc(C)cc3C)n12)COC(C)(C)C4 | -21.2%
COc1cccc(OC)c1OCCCSc1nc(C)cc(=O)[nH]1 | -8.3%
COc1cccc(NS(=O)(=O)c2c(C)cc(C)cc2C)c1 | -25.4%
Cc1c(NC(=O)CN2CC(C)OC(C)C2)c(=O)n(-c2ccccc2)n1C (configuration not stated) | 3.3%
CN(C(=O)CSc1nnnn1-c1ccccc1)C1CCCCC1 | -13.7%
CCCC(=O)NC(=S)Nc1nc(-c2ccc(OC)cc2)cs1 | -3.4%
CCCN1CCN(C(=O)C2CCN(S(=O)(=O)c3ccc4c(c3)oc(=O)n4C)CC2)CC1 | -16.8%
CCOC(=O)NC1(C(F)(F)F)C(=O)NC(C)=C1C#N (configuration not stated) | -12.5%
Cc1ccc(CNC(=O)/C(C#N)=C/c2ccc(C)s2)cc1 | -2.2%

Part of the list above in order of heavy-atom count, smallest number first:
SMILES | HPGD block
CCOC(=O)NC1(C(F)(F)F)C(=O)NC(C)=C1C#N (configuration not stated) | -12.5%
COc1cccc(NS(=O)(=O)c2c(C)cc(C)cc2C)c1 | -25.4%
CCOC(=O)CC1C(=O)NCCN1C(=O)Nc1ccccc1 (configuration not stated) | -4.7%
CN(C(=O)CSc1nnnn1-c1ccccc1)C1CCCCC1 | -13.7%
CN(C)S(=O)(=O)c1ccc(NC(=O)c2cc3ccccc3o2)cc1 | -6.0%
Cc1c(NC(=O)CN2CC(C)OC(C)C2)c(=O)n(-c2ccccc2)n1C (configuration not stated) | 3.3%
COC(=O)CSc1nnc2c3c4c(sc3nc(-n3nc(C)cc3C)n12)COC(C)(C)C4 | -21.2%

(list continues)
SMILES | HPGD block
O=C(c1ccccn1)N1N=C2/C(=C/c3ccccc3)CCCC2C1c1ccccc1 (configuration not stated) | ?
CC(=O)c1c(C)[nH]c(C(=O)NCc2ccccn2)c1C | -5.9%
CC1CC(C)CN(C(=S)Nc2ccc(SC(F)F)cc2)C1 (configuration not stated) | -13.1%
Cc1cccc(S(=O)(=O)Nc2nc3ccccc3nc2NCc2ccc3c(c2)OCO3)c1 | -14.7%
Cc1ccc2c(c1)C(c1ccc(N3CCOCC3)cc1)=NNC(c1cccs1)=N2 | -14.1%
Cc1cc(OCC(=O)NCCO)ccc1Cl | -5.6%
COc1ccc2cc(CN(CCCN3CCOCC3)Cc3nnnn3C3CCCC3)c(=O)[nH]c2c1 | -17.7%
CCN(CC)C(=O)C1CCN(S(=O)(=O)c2ccc(C3CNC(=O)C3)cc2)CC1 (configuration not stated) | -6.3%
Cc1ccc(CNC(=O)c2coc(=O)c3ccccc23)o1 | -14.9%
COC(=O)c1ncccc1SC | -4.8%
CCc1cc2c(=O)c(-n3cnc4ccccc43)coc2cc1O | ?
CCCCCCN1Cc2ccccc2C1 | 0.4%
C[C@]12CC[C@H](O)CC1=CC[C@H]1[C@@H]2CC[C@@]2(C)C(N(CCO)CCO)CC[C@@H]12 (some centres not stated) | -0.8%
c1ccc(-c2nc(-c3cccc4ccccc34)c(NC3CCCCC3)o2)cc1 | -18.3%
CC1CCN(c2c([N+](=O)[O-])nn(-c3ccc4c(c3)OCCO4)[n+]2[O-])CC1 | -25.8%
COc1ccc(C(=O)c2c(C)c3cc(C)ccc3n2CC(O)CN2CCOCC2)cc1 (configuration not stated) | -29.5%
C[n+]1cnn2c1SCC1(COC1)C2 | -7.4%
O=C1CN(C(=O)CN2CCCC2)C(c2ccccc2)c2cc(Br)ccc2N1 (configuration not stated) | 3.6%
COc1ccc(CN2C(=O)c3ccccc3C(/C=N\OCc3ccc(C)cc3)C2=O)cc1 (configuration not stated) | -13.1%
COc1cc(/C=N/n2cnnc2)ccc1OC(=O)c1cccnc1 | -10.9%
O=c1[nH]c2ccccc2c2nc3ccccn3c12 | -20.8%
CCOC(=O)CNC(=O)CSc1nc2nc(C)c(Br)cc2[nH]1 | -10.8%
O=C(NC1CCCCCCC1)C1=COCCO1 | -21.9%
CNC(=O)/C(=C\c1ccc([N+](=O)[O-])cc1)NC(C)=O | -17.1%
Cc1ccc2c(c1)N(CCC(=O)NCCN1CCOCC1)C(=O)CO2 | -17.1%
CCOC(=O)/C=C1\CC(C(=O)OCC)Oc2ccccc21 (configuration not stated) | -7.6%
CNc1nc(-c2ccccc2OC)nc2ccccc12 | -21.6%
COC(=O)CSc1c(-c2ccccc2)c2cc(Cl)ccc2[nH]c1=O | -9.9%
COCCCNc1nc2c(c(=O)[nH]c(=O)n2C)n1CCCc1ccccc1 | -10.6%
O=C(CSC1c2ccccc2C(=O)N1c1ccccc1)N1CCOCC1 (configuration not stated) | -5.0%
Cc1ccccc1OCc1nnc(SCC(=O)Nc2ccc3nc(SCC(=O)Nc4ccccc4)sc3c2)n1C | -12.3%
COc1ccc2oc3cc(C)[n+]([O-])c(-c4ccc(C)cc4)c3c2c1 | -17.4%
CCC(C)NC(=O)CS(=O)Cc1nc(-c2ccccc2C)oc1C (configuration not stated) | -13.2%
CCCCN(C)C(=O)CCC(=O)Nc1ccc2nc(N3CCOCC3)cc(C)c2c1 | ?
O=C(COc1ccccc1O)c1cccs1 | ?
CCOC(=O)CSc1nc(C)nc2c1sc1nc(C)c(C(C)=O)c(-c3ccc(OC)cc3)c12 | -6.5%
Cc1cccc2cc(C#N)c(NCCNC(=O)NC3CCCCC3)nc12 | ?
COc1ccc(-n2nnnc2SCC(=O)Nc2nnc(C)s2)cc1 | -15.1%
CN(C)S(=O)(=O)N(CC(=O)N1CCOCC1)c1ccccc1 | -6.0%
COc1ccc(NS(=O)(=O)c2cc(NC(=O)c3ccco3)ccc2N2CCCC2)cc1 | -7.2%
CCN(CC)S(=O)(=O)c1cccc(C(=O)OCC(=O)N2CC(=O)Nc3ccccc32)c1 | -4.0%
COc1cccc(C2=CC(c3ccc(OC)c(OC)c3OC)n3nnnc3N2)c1 (configuration not stated) | ?
Cc1cccc(CN2CCC(CNC(=O)CCNC(=O)Cn3ccc4ccccc4c3=O)CC2)c1 | -2.4%
Cc1ccc2nc(Cl)c(C3CC(c4cccs4)=NN3C(=O)CCCC(=O)O)cc2c1 (configuration not stated) | -13.9%
CC(=O)c1ccc(N/N=C(/C(N)=O)C2=NC(C)(C)Cc3ccccc32)cc1 | -14.5%
COc1cccc(NC(=O)CSCc2n[nH]c(=O)[nH]2)c1 | 1.5%
C=CCn1c(SCC(=O)c2ccc(OC)cc2)nnc1-c1cc2cccc(OC)c2o1 | 1.8%
C[N+](C)(C)c1nc(N)nc2c1ncn2[C@H]1O[C@@H](CO)[C@@H](O)[C@H]1O | -11.7%

Given with each value named: entries from further up
> Cc1cccc2cc(C#N)c(NCCNC(=O)NC3CCCCC3)nc12
  HPGD block: ?

> COc1ccc(-n2nnnc2SCC(=O)Nc2nnc(C)s2)cc1
  HPGD block: -15.1%

> CN(C)S(=O)(=O)N(CC(=O)N1CCOCC1)c1ccccc1
  HPGD block: -6.0%

> COc1ccc(NS(=O)(=O)c2cc(NC(=O)c3ccco3)ccc2N2CCCC2)cc1
  HPGD block: -7.2%

(next part)
SMILES | HPGD block
CCCc1cc(=O)[nH]c(SCC(N)=O)n1 | -7.1%
CCc1ccc(NC(=O)C2C3C=CC(C4CC34)C2C(=O)O)cc1 (configuration not stated) | -11.3%
Cc1c(C(=O)NCCSCc2ccco2)cccc1[N+](=O)[O-] | -19.8%
COc1cc(C(=O)NCCN2CCOCC2)cc(OC)c1OC | -5.1%
CC(=O)c1c(C)[nH]c(C(=O)Nc2nc(-c3ccc(Cl)cc3)cs2)c1C | -19.6%
COc1ccc(NS(=O)(=O)c2cc(NC(=O)/C=C/c3ccccc3OC)ccc2N2CCCCC2)cc1 | -24.2%
O=C(CSc1nnc(-c2cccs2)o1)NCC1CN(Cc2ccccc2)CCO1 (configuration not stated) | -2.3%
COC(=O)c1c(NC(=O)C(C)(C)C)sc2c1C(C(=O)OC)CC2 (configuration not stated) | ?
COC(=O)c1cc(NS(=O)(=O)c2ccc(N3CCCCC3)c([N+](=O)[O-])c2)cc(C(=O)OC)c1 | -11.7%
CCS(=O)(=O)N1CCN(Cc2ccncc2)CC1 | -4.8%
COc1cc(OC)cc(-c2sc3ccccc3c(=O)c2I)c1 | ?
CCOc1cc(C(=O)OCC(=O)Nc2c(C)cccc2C)ccc1OCC(=O)N1CCOCC1 | -6.2%
Cc1c(C(=O)OC(C)C(C)C[N+](C)(C)C)oc2ccccc12 (configuration not stated) | -7.1%
O=C(O)CSc1nc2ccccc2c(=O)[nH]1 | -17.8%
Cc1ccccc1Cn1cc(NC(=O)c2cc3nc(-c4ccco4)cc(C(F)(F)F)n3n2)cn1 | ?
CCCc1cc(-c2nc(N)ncc2-c2ccc3c(c2)OCCCO3)c(O)cc1OC | -11.9%
Cc1oc2ccc(O)c(CN3CCOCC3)c2c1C(=O)c1ccc(Cl)cc1 | -17.8%
COc1ccc(OCCn2cncn2)cc1 | -2.1%
Cc1ccc2nc(-c3ccc(NC(=O)CN(c4ccccc4C)S(C)(=O)=O)cc3)sc2c1 | ?
Nc1nnnn1/N=C\c1ccc(Cl)c([N+](=O)[O-])c1 | -6.6%
Cc1nc(NC(=O)c2ccc(Br)o2)sc1C | -20.8%
O=c1cc(NCC2CCCO2)[nH]c(=O)n1-c1ccc(Cl)cc1 (configuration not stated) | -2.6%
CC(C)NC(=O)c1noc2cc([N+](=O)[O-])ccc12 | 5.5%
NNC(=O)c1cn2ccccc2n1 | -21.0%
COc1ccc(-c2cc(C(F)(F)F)n3nc(C(=O)N4CCCCC4)cc3n2)cc1OC | 0.501µM*
COc1cccc([C@@H]2Oc3ccc(OC)cc3C(=O)[C@H]2OC(=O)NC2CCCC2)c1 | -6.2%
Cc1ccc(S(=O)(=O)N2CCC(=O)N(C(COCc3ccc(Cl)cc3)C(C)C)CC2)cc1 (configuration not stated) | -3.4%
Cn1c2ccccc2c2nnc(SC3CCOC3=O)nc21 (configuration not stated) | -9.7%
O=C(COc1ccccc1)N/N=C/c1ccc(O[C@@H]2O[C@H](CO)[C@@H](O)[C@H](O)[C@H]2O)cc1 | -14.3%
Cc1cccc(NC(=O)CSc2nnnn2C)n1 | -9.5%
Cc1ccsc1CNn1cnnc1SCc1ccccc1F | -13.6%
Cc1cccc(NC(=S)NNC(=O)COc2ccc(Cl)cc2Cl)c1 | ?
CCCCn1c(NC(=O)CC)c(C#N)c2nc3ccccc3nc21 | ?
COC(=O)[C@H]1C[C@@H]1[C@H](NC(=O)[C@H]1C[C@@H]1[C@H](NC(=O)OCc1ccccc1)c1ccccc1)c1ccccc1 | -10.8%
CCCC(CCC(=O)Nc1ccc(C(=O)OCC)cc1)C(=O)O (configuration not stated) | -8.8%
O=C(COC(=O)c1ccccc1)c1ccc(Br)cc1 | ?
CC(C)[C@@H](CC(=O)N[C@@H]1CCNC[C@H]1C(=O)N[C@H](CC(=O)N[C@@H](CCC(=O)O)CC(=O)O)Cc1c[nH]c2ccccc12)NC(=O)C[C@H](Cc1ccccc1)NC(=O)[C@@H]1CNCC[C@H]1N | -9.3%
COc1ccc(NC(=O)c2sc(NC(=O)COc3ccccc3)nc2C)cc1 | -5.8%
C=CCn1c(SCC(=O)Nc2ccccc2OC)nc(O)c(CC)c1=O | -17.7%
COc1ccccc1C(=O)Nc1ccc(S(=O)(=O)Nc2cc(C)on2)cc1 | ?
CCn1ncc(C2=NOC(C(=O)Nc3cc(OC)c(Cl)cc3OC)C2)c1C (configuration not stated) | 0.3%
CCOC(=O)C1CCCN(C2CC(=O)N(c3ccc(C)cc3)C2=O)C1 (configuration not stated) | -5.4%
Cc1ccc(-n2nc3c(c2NC(=O)/C=C\c2ccc4c(c2)OCO4)CSC3)cc1 | ?
COc1cc(-c2nc(-c3ccccn3)no2)cc(OC)c1OC | -12.8%
COc1ccc(S(=O)(=O)Oc2ccc3ccccc3c2)cc1 | -15.1%
COC(=O)COc1nc(C)c2c(c1C#N)CC(C)(C)OC2 | -16.3%
CCCCCSc1nc2c(c(=O)[nH]c(=O)n2C)n1CCc1ccccc1 | -17.2%
CCC(C)(C)n1nnnc1C(c1cc2cccc(C)c2[nH]c1=O)N1CCCC1 (configuration not stated) | -7.1%
CCn1c(SCC(=O)N=Nc2c(O)[nH]c3ccccc23)nnc1-c1ccc(C(C)(C)C)cc1 | -7.7%
O=C(Cn1c(O)c(/C=C2\C=Nc3ccc(Br)cc32)sc1=O)N1CCCC1 | -27.2%
Nc1cc(C(=O)OCC(=O)N2CCCC2)ccc1Cl | ?
CCN(CC)C(=O)CSc1nc(OC)cc(=O)[nH]1 | -8.7%
Cc1cc(C(F)F)n2nc(C(=O)Nc3ccc(S(=O)(=O)NC45CC6CC(CC(C6)C4)C5)cc3)nc2n1 | -25.7%
O=c1cc(CSc2nc3ccccc3[nH]2)c2ccccc2[nH]1 | 7.94µM*
O=C(O)C1CCCN(S(=O)(=O)c2ccc(Br)cc2)C1 (configuration not stated) | 0.2%
CCOC(=O)c1c(C)n(C)c2cc(OCCN(CC)CC)ccc12 | -3.5%
OC(COc1c(Br)cc(Br)cc1Br)CN1CCOCC1 (configuration not stated) | -8.1%
COc1cc(OC)c(NS(=O)(=O)c2ccc(Cl)c(C(=O)OC(C)C(=O)N3CCCC3)c2)cc1Cl (configuration not stated) | 1.4%
CCCCCOC(=O)Cn1c(=O)c2c(nc(N3CCOCC3)n2C)n(C)c1=O | -3.2%

This is a subset, so the mix of outcomes need not match the whole.
